From PubChem
ClpP mod: qHTS Assay for Activators of ClpP. ATP-dependent Clp protease proteolytic subunit (Bacillus subtilis (strain 168)), P80244. purified B. subtilis ClpP, FRET peptide cleavage, 20 min. actives 1.9% (n = 340,000). Potency, µM (titrated, usually from 57.5 µM), inactives show at the top dose activity change, negative = active; active = well fitted falling curve with a large enough effect; inconclusive = small, poorly fitted or top-dose-only effect; inactive = no such curve, though single readings can be large or run the other way; further: potency means the concentration at half of the fitted maximal effect; the source files actives as falling curves though it sought activators and does not explain the sign; nearly all actives have a fitted effect of over 65% in size; many hits overshoot -100%
Target sequence (P80244 whole entry, looked up): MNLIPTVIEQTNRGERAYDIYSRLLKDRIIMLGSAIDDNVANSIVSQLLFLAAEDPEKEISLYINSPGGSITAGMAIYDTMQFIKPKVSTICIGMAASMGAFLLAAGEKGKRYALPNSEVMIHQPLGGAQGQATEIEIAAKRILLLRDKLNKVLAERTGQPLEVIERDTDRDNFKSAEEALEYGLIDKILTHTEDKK
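Purified B. subtilis ClpP, 10 microg/mL final in Tris/HCl pH8 with KCl, BSA, glycerol and Tween-20, cleaved an Abz/nitrotyrosine-quenched decapeptide. Fluorescence (ex 320, em 430) was read at 0 and 20 min at room temperature. Delta was normalized to 5.8 microM ADEP and DMSO/no-enzyme controls.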
gsp ag: activates gsp, the McCune-Albright syndrome mutation; AID 624287; Potency, µM (doses to about 76.9 µM), for inactives: top-dose activation (cAMP increase), actives largely listed as activators; gsp mutant cells, cAMP HTRF, 30 min; control for the full effect not named in the record; actives 0.13% (n = 340,000); active = well fitted activation curve with a large enough effect; inconclusive = small, poorly fitted or top-dose-only effect, or another doubt; inactive = no such curve, though single readings can be large or run the other way; cell line not stated here;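 further: phosphodiesterase inhibitor Ro 20-1724 added with compounds to block cAMP breakdown; potency means the concentration at half of the fitted maximal effect; nearly all actives have a fitted effect of over 60% in size; about a fifth of the inactives were tested at one dose only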
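Cells stably selected in G418 were plated at 2000/well, grown 16-24 hr, then given compounds in DMSO with the PDE inhibitor […] (300 uM solution added) for 30 min at 37C; cAMP was read by HTRF.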
Menin MLL FP FL: menin-MLL binding inhibition, fluorescein peptide. Fluorescence polarization, fluorescein-MLL peptide displacement from menin. 290,000 tested, under 10 active. AID 1766. FP activity change, % at 61.4 µM; inconclusive = falling polarisation curve, or a change in total fluorescence; inactive = total fluorescence flat and polarisation flat or rising; no compound was filed as active; the % refers to the polarisation; negative = inhibition;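 further: % of control where 0% means no effect; inhibitors lower the polarisation; unlabelled MLL peptide was the positive control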
TRPV1 potentiator: human TRPV1 potentiation; actives 0.02% (n = 320,000); potentiation, % at 8.33 µM; Q8NER1; TRPV1-expressing cells, Fluo-8 calcium influx, capsaicin EC20 potentiation; host cell line not named in the record; control for the full effect not named in the record; active means potentiation above 80%; inconclusive means 30% to 80%; inactive means below 30%; further: 0% is about no effect
Target sequence (Q8NER1 whole entry, looked up): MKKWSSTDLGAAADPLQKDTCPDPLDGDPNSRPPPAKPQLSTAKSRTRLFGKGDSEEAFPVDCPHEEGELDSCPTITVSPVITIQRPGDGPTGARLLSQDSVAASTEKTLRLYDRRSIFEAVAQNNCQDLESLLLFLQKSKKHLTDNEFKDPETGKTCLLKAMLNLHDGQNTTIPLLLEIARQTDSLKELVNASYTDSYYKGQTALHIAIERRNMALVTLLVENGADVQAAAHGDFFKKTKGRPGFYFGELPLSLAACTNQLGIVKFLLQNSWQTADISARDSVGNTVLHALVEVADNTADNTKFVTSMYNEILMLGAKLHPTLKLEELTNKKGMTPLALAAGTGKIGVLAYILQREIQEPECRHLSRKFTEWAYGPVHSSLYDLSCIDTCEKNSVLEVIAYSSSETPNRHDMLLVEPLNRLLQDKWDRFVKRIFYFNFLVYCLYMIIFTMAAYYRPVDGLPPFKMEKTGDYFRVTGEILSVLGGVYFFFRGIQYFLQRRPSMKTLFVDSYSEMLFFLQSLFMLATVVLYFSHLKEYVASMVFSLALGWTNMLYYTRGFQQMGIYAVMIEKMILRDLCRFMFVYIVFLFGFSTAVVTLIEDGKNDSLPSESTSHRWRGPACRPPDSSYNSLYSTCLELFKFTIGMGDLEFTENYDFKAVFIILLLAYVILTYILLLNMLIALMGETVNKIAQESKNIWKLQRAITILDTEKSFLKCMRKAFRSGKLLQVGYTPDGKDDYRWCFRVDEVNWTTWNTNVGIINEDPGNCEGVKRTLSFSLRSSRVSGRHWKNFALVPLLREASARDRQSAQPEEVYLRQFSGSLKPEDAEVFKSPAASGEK
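TRPV1-expressing cells were cultured overnight at 35.5C and loaded with Fluo-8 calcium dye for 40 to 90 min at room temperature. After a 10 s baseline, compound was added and calcium influx was read kinetically for 3 min (ex 480/em 520 nm).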
gsp antagonist: gsp mutant antagonism; actives 0.4% (n = 340,000); Potency, µM (doses to about 76.9 µM), without a hit: at the top dose activity change, negative = inhibition, hits mostly inhibitors; AID 624288; gsp-mutant cells, cAMP HTRF, 30 min; control for the full effect not named in the record; active = falling curve of any shape with a large fitted effect; inconclusive = falling curve, mostly with a smaller effect; inactive = flat or rising curve; cell line not stated here;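 further: intracellular cAMP measured with PDE inhibitor Ro 20-1724 present during compound exposure; potency means the concentration at half of the fitted maximal effect; on the % scale 0 is the no-effect control and ±100 the full control effect; nearly all actives have a fitted effect of over 65% in size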
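Cells in G418 medium, seeded 16-24 h, 37C; buffer exchange to DPBS + 1 mM CaCl2, 0.5 mM MgCl2, 0.05% BSA; cpds in DMSO + […] (300 uM stock), 30 min 37C; HTRF cAMP detection.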
D2 PAM: positive allosteric modulators of human D2 dopamine receptor; actives 0.23% (n = 360,000); potentiation, % (no concentration beside the values); DiscoveRx D2 beta-arrestin cells, luminescence, 90 min; 100% = 57 uM dopamine signal; P14416; active = potentiation of 50% or more; inconclusive = 30% to 50%; inactive = 30% or less;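 further: compound concentration not given in the record; tested on top of an EC20 dose of dopamine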
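PathHunter beta-arrestin assay in DiscoveRx D2 cells. Compounds were added with an EC20 of dopamine (50 nM final) for 90 min at 37 deg C. Luminescence was read 1 h after detection reagent, with 57 uM dopamine as the EC100 control.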
Sfp PPTase inh: inhibitors of Bacillus subtilis Sfp phosphopantetheinyl transferase. Biochemical Sfp PPTase activity, qHTS. Potency, µM, for inactives: max response, negative = inhibition, actives largely listed as inhibitors. actives 3.5% (n = 310,000); active means well fitted inhibition curve with a large enough effect; inconclusive means small, poorly fitted or top-dose-only effect, or another doubt; inactive means no such curve, though single readings can be large or run the other way;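 further: the enzyme is Sfp with the accession as filed and its product quenches rhodamine fluorescence; potency means the concentration at half of the fitted maximal effect; 0% = enzyme reaction without inhibitor and -100% = no enzyme wells; top concentration of the series not given in the record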
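With Hepes-Na pH 7.6 buffer containing 10 mM MgCl2, Sfp (15 nM) modified BHQ-2-YbbR (12.5 uM) using rhodamine-CoA (5 uM). Two reads 30 minutes apart at 525/598 nm yielded each well's rate.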
The depositor's hits bear a star; ? = inconclusive; . = not tested or not shown; & = joins results of further samples; [ ] = remark or other dose.

Structure,ClpP mod,gsp ag,Menin MLL FP FL,TRPV1 potentiator,gsp antagonist,D2 PAM,Sfp PPTase inh
Cc1ccc(CN(C)C(=O)c2cccc(S(=O)(=O)N3CCN(Cc4ccccc4)CC3)c2)o1,-2.3%,-20%,.,-8,-12%,-21,.
CCC(C)NCCOCCOc1ccc(Br)cc1 (stereo unspecified),.,0%,-0.3,1,-6%,-16,?
CC1CN(C(=O)c2c([N+](=O)[O-])cnn2C)CC(C)O1 (stereo unspecified),-0.4%,-2%,2.6,2,0%,4,20%
CCCc1c(C)nc(N2CCN(c3ccccc3OC)CC2)[nH]c1=O,-0.5%,22%[15.4 µM],-6.0,10,-7%,-9,7%
COc1ccc(C=NNC(=S)NC23CC4CC(CC(C4)C2)C3)cc1OC,-1.3%,5%,.,.,15%,-27,.
COc1cc2c(cc1OC)C(C(=O)NCC1COc3ccccc3O1)C(c1cccnc1)N(C)C2=O (stereo unspecified),-3.0%,27%,?,-22,-5%,6,13%
CC1CN(C(=O)c2cccc(Oc3ccccc3)c2)CC(C)O1 (stereo unspecified),0.1%,-4%,-1.4,-14,-4%,-7,13%
CCn1c(SCC(=O)N2CC(C)OC(C)C2)nc2c([nH]c3ccccc32)c1=O (stereo unspecified),-10%,-17%,.,-16,1%,-7,4%
O=C(CCC(=O)N1CCOc2ccccc21)NCc1ccccn1,-0.1%,-88%[inhibitor],-1.1,-7,4%,-8,8%
CC(/C=C1\SC(=O)N(CCCC(=O)O)C1=O)=C\c1ccccc1,3.6%,0%,2.0,8,?,-17,3%
O=C(Nc1cccc([N+](=O)[O-])c1)Nn1cnnc1,0.1%,4%,.,-4,5%,-27,17%
CN(CCCn1ccc(N)nc1=O)Cc1ccco1,1.9%,-1%,.,.,.,-2,.
Cc1ccc(S(=O)(=O)c2cc3c(=O)n4ccccc4nc3n(CCc3ccccc3)c2=N)cc1,.,-2%[15.4 µM],?,4,-2%,-3,15%
CC(C)(Oc1ccc(Cl)cc1)C(=O)NC1=NN(c2ccccc2)C(=O)C1,-2.4%,16%,5.0,0,-5%,9,-8%
CCc1ccc(-c2cc3c(=O)n(CC(=O)NCCCN4CCN(Cc5ccccc5)CC4)nc(C)n3n2)cc1,4.4%,-72%[inhibitor],.,19,12%,-22,-12%

The listing continues:
Structure,ClpP mod,gsp ag,Menin MLL FP FL,TRPV1 potentiator,gsp antagonist,D2 PAM,Sfp PPTase inh
CCC(C)N1C(=O)S/C(=C/c2ccc(Sc3nc4ccccc4[nH]3)o2)C1=O (stereo unspecified),-0.3%,2%,?,-2,?,-13,21%
Cc1cccn2c(=O)nc(SCC(=O)c3ccccc3)nc12,-14%,9%,.,-2,2%,?,.
Clc1ccc(-n2nnnc2CN2CCOCC2)cc1,-1.9%,-22%,1.8,.,4%,2,14%
COc1ccc(NC(=O)C(C)Sc2nnc(C3CC3)n2C2CC2)cc1 (stereo unspecified),0.5%,-17%,.,3,3%,11,.
Cc1cc(C)n(CCCNC(=O)c2ccco2)n1,0.1%,-25%,.,22,18%,-1,.
COc1ccc(/C=N/OCc2nc3c4c(ncn3n2)Oc2ccc3ccccc3c2C4c2ccccc2)cc1 (stereo unspecified),-6.6%,-7%,4.7,14,10%,3,15%
CC1CCCN(C(=O)CNS(=O)(=O)c2cccs2)C1 (stereo unspecified),.,-5%,-1.8,3,2%,-1,2%
COCCN(C(=O)COC(=O)CCOc1ccccc1C)c1c(N)n(Cc2ccccc2)c(=O)[nH]c1=O,-1.0%,?,.,7,12%,1,.
Oc1ccc(/C=N/Nc2ccnc3cc(Cl)ccc23)c(O)c1O,.,12%[15.4 µM],49[activator],-4,-7%,3,45µM*
C/C(=N\NC(=O)c1csc(C)c1C)c1ccc(Cl)s1,0.4%,26%,3.9,?,-14%,-11,-3%
O=C(c1ccc(F)cc1)N1CCN2C(=O)c3ccccc3C12c1ccc(Cl)cc1 (stereo unspecified),.,-3%,-4.0,-5,?,-5,13%
Cc1cccc(NC(=O)CSc2nc3[nH]ncc3c(=O)[nH]2)c1,-2.7%,-27%,1.1,7,8%,-34,12%
CCOC(=O)/C=C1\SCC(=O)N1CC(=O)NC(C)c1ccc(F)cc1 (stereo unspecified),2.1%,8%,18,0,-4%,30,7%
Cc1nc(C)n(C(C)CNC(=O)c2ccccc2)n1 (stereo unspecified),-1.4%,-2%[15.4 µM],-5.4,5,8%,-13,21%
Cc1cc(C)n(Cc2ccccc2F)c(=O)c1C#N,-27%,-11%,-1.5,12,5%,-14,9%

Continuation:
Structure,ClpP mod,gsp ag,Menin MLL FP FL,TRPV1 potentiator,gsp antagonist,D2 PAM,Sfp PPTase inh
Cc1ccc(Cl)cc1N1CCN(Cc2cc(=O)n3ccsc3n2)CC1,.,9%[15.4 µM],-1.1,5,-19%,-9,-8%
CCCCC(=O)Oc1c(S(=O)(=O)c2ccccc2)c(C)nn1C(C)(C)C,-0.8%,9%[15.4 µM],-4.4,-15,-15%,-8,-2%
COc1cccc2cc(C(=O)NC3CC4CCC3C4)oc12 (stereo unspecified),.,-45%[inhibitor],9.7,-34,-7%,-3,7%
CCc1cccc(C)c1NS(=O)(=O)c1cc(Br)cnc1N,.,1%,.,8,-12%,-2,-3%
COc1ccccc1N1CCN(S(=O)(=O)/C=C/c2ccccc2)CC1,0.0%,-7%,0.6,-1,-6%,14,-7%
O=c1[nH][nH]c(=S)n1C1CCCCC1,.,3%[15.4 µM],0.5,.,3%,-10,2.8µM*
Cc1ccc2nc(-c3ccncc3)cc(-c3ccccc3)c2c1,?,0%,5.7,9,-2%,2,-19%
Cc1c(NS(=O)(=O)c2ccc(N3CCCCC3)c([N+](=O)[O-])c2)c(=O)n(-c2ccccc2)n1C,-1.1%,-10%,-0.5,3,-8%,-15,-7%
CN(C)/C=C/C(=O)c1nnn(C2CCCCC2)c1NC1CCCCC1,-8.2%,-3%,?,?,-17%,-5,-4%
CN(Cc1ccccc1)C(CNS(=O)(=O)c1ccccc1)c1ccccc1 (stereo unspecified),0.2%,0%,.,.,.,-25,.
COC(=O)CN1C(=S)N(c2ccccc2)C(=O)C1CC(=O)Nc1ccc(Cl)cc1 (stereo unspecified),-1.2%,-37%,5.9,11,?,-16,1%
COc1cc2c(cc1OC)CN(CC(O)c1ccccc1)CC2 (stereo unspecified),.,-6%,2.7,-36,8%,-11,5%
CC(NC(=O)c1cccc(S(=O)(=O)N2CCc3ccccc32)c1)c1ccco1 (stereo unspecified),-3.0%,6%,.,15,-17%,-3,.
O=C(COC(=O)c1ccccn1)Nc1cc(Cl)ccc1Cl,-0.1%,22%,-11,29,5%,3,8%
COc1ccc(CCNC(=O)C/C(C)=N/NC(=O)c2cnccn2)cc1,-4.0%,?,-5.9,-4,9%,-14,-13%

Next entries follow.
Structure,ClpP mod,gsp ag,Menin MLL FP FL,TRPV1 potentiator,gsp antagonist,D2 PAM,Sfp PPTase inh
CC(=O)N1C(=O)N(C)C2C1N(C(C)=O)C(=O)N2C (stereo unspecified),-5.8%,-10%,3.4,4,-12%,-7,14%
O=C1c2ccccc2CN2C(=O)c3ccccc3CN12,-0.7%,4%,1.8,6,10%,-4,17%&11%
O=[N+]([O-])c1cc(CN2CCCCCC2)ccc1O,-15%,-2%[15.4 µM],-1.2,0,-5%,-12,9%
CSc1cccc(NC(=O)C2CC(=O)N(c3ccc4c(c3)OCCO4)C2)c1 (stereo unspecified),-1.4%,-22%,.,.,.,-35,.
C=CCn1c(COc2ccc(Cl)cc2)nnc1SCC(=O)c1c(N)n(C)c(=O)n(C)c1=O,.,14%[15.4 µM],0.8,-5,.,0,3%
COc1ccccc1N1CCN(C(=O)CSc2ncnc3c2cnn3-c2ccc(C)c(C)c2)CC1,-29%,-13%,6.8,0,-13%,-7,-3%
CCOc1ccc(Oc2cc(N)cc([N+](=O)[O-])c2)cc1,.,-20%,3.8,5,4%,-3,-1%
O=C(Cc1c[nH]c2ccccc12)N/N=C/c1cccc(F)c1,1.0%,1%,1.8,7,-8%,-10,1%
Cc1ccc(S(=O)(=O)N(C)C)cc1NC(=O)COc1ccc(-c2nnco2)cc1,.,23%[15.4 µM],0.7,4,2%,-11,5%
CCN(CC)S(=O)(=O)c1cccc(C(=O)Nc2nncs2)c1,0.8%,-3%,0.0,-1,0%,-10,5%
CN(c1ccccc1)c1ncnc2c1ncn2C,1.0%,0%[15.4 µM],.,.,8%,-10,.
COc1ccccc1NC1=C(NC(C)=O)C(=O)c2ccccc2C1=O,0.7%,-8%,2.1,3,-25%,1,-97%
N=c1n(CCN2CCCC2)c2ccccc2n1CC(O)c1ccc(Cl)c(Cl)c1 (stereo unspecified),0.1%,-9%,-16,-2,11%,-10,-5%
C=CCc1c(C)nc2c(C)cccc2c1SC(=N)N,.,18%[15.4 µM],-0.8,-3,14%,-13,56µM*
CSc1ccccc1C(=O)NCC(c1ccco1)N(C)C (stereo unspecified),.,4%[15.4 µM],.,-10,10%,-11,15%

(cont.)
Structure,ClpP mod,gsp ag,Menin MLL FP FL,TRPV1 potentiator,gsp antagonist,D2 PAM,Sfp PPTase inh
Cc1ccc(O)c(NC(=O)c2onc(C)c2Cl)c1,0.7%,-8%,-4.9,-8,-1%,-7,5%
CCCCCCSC1=C(C#N)C(c2ccc(C)o2)CC(=O)N1 (stereo unspecified),-6.2%,4%,5.3,9,-2%,-9,-10%
COn1c(C)c(C)c2c3nonc3ccc21,0.1%,10%[15.4 µM],2.3,-1,15%,-16,1%
COc1cccc(NC(=O)Cn2nnc(C(=O)NCc3ccc4c(c3)OCO4)c2N)c1,-2.6%&1.4%,-27%,.,18,7%,-12,-4%

Reformatted field by field: part of the list above
> COc1cccc(NC(=O)Cn2nnc(C(=O)NCc3ccc4c(c3)OCO4)c2N)c1
  ClpP mod = -2.6%&1.4%
  gsp ag = -27%
  Menin MLL FP FL = .
  TRPV1 potentiator = 18
  gsp antagonist = 7%
  D2 PAM = -12
  Sfp PPTase inh = -4%
> COn1c(C)c(C)c2c3nonc3ccc21
  ClpP mod = 0.1%
  gsp ag = 10%[15.4 µM]
  Menin MLL FP FL = 2.3
  TRPV1 potentiator = -1
  gsp antagonist = 15%
  D2 PAM = -16
  Sfp PPTase inh = 1%
